# Screens as filed in PubChem.
# TAR Tat displ = HIV-1 TAR-Tat binding disruption; hit rate 0.6% among 100,000; z-score (no concentration beside the values); HIV-1 TAR RNA, Tat peptide displacement FRET; active compounds read high; AID 1259389;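 note: score is relative to mean and SD of negative controls; some compounds called inactive have numbers as strong as hits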
# CDC25B CDK2 inh = human CDC25B-CDK2/CyclinA binding inhibition | P30305+P24941 | HTRF CDC25B-CDK2/CyclinA binding, anti-His/anti-Flag; active compounds read high | z-score (no concentration beside the values) | hit rate 0.72% among 94,000 | AID 1259370;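 note: score is relative to mean and SD of negative controls; strong numbers were not always called active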
# * hit, by the source's call; · = not tested or not shown; & = joins results of further samples.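 Rule for the calls: active = z-score from 3 up in half or more of its runs; inactive = the rest.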
SMILES,TAR Tat displ,CDC25B CDK2 inh
CCN1C(=O)C2(/C(=C(/O)c3ccc4c(c3)CC(C)O4)C(=O)C(=O)N2CCCOC)c2ccccc21 (stereo not drawn),-0.21,-1.4
CCOc1ccc(-n2nnnc2CNS(=O)(=O)c2ccc(Br)cc2)cc1,0.51,·
C[C@H]1[C@H](C)CC[C@]2(C(=O)O)CC[C@]3(C)C(=CC[C@@H]4[C@@]5(C)CC[C@H](O)C(C)(C)[C@@H]5CC[C@]43C)[C@H]12,2.8,·
Cc1nnc(NC(=O)CSc2nc3c(cnn3-c3ccc(F)cc3)c(=O)[nH]2)s1,·,-0.4
COc1ccc(SCc2cc(=O)c3cc(Cl)ccc3[nH]2)cc1,-0.4,·
O=C(Cn1nc(-c2ccc3c(c2)OCCO3)ccc1=O)N(c1ccccc1)c1ccccc1,1.1,-0.65
CCOC(=O)C1(CC)CC(C)(c2csc(Nc3ccccc3Cl)n2)OC1=O (stereo not drawn),-0.23,-1.6
Cc1ccc(C(C)C)c(OCCn2c(CN3CCOCC3)nc3ccccc32)c1,-0.28,1.7
CCOC(=O)c1cc(S(=O)(=O)N(C)CC(=O)Nc2nc(C)cs2)cn1C,-0.66,·
Cc1occc1C(=O)NCCCn1ccnc1,-1.1,-1.5
O=C(O)C1CCC(CNc2c(N3CCCCC3)c(=O)c2=O)CC1 (stereo not drawn),1.9,·
COc1ccc(Nc2nc(N3CCC(C)CC3)nc3c2cnn3C)cc1,-0.35,·
Nc1ccc2nc(CCC(=O)O)[nH]c2c1,1.1,19*
O=C(NCc1ccccn1)c1c(O)nc2ccccn2c1=O,0.18,-0.25
CN(C)C(=O)CN1c2ccc(Br)cc2-c2ccccc2S1(=O)=O,1.6,-2.7
CCN(CC)S(=O)(=O)c1ccc2c(c1)N(Cc1c(C)cc(C)cc1C)C(=O)CS2,-1.6,·
Cc1ccccc1CN1CCN(CC(=O)NCc2ccc3c(c2)OCO3)C1=O,·,-0.93
O=C(CCc1nnc2ccc(N3CCCCC3)nn12)NC1CCCCC1,-0.41,·
Cc1oc2ccccc2c1CC(=O)NNC(=S)Nc1cccc(C(F)(F)F)c1,·,-0.24
Cc1cc2n(n1)CCCN2C(=O)Nc1ccc(F)cc1,1.5,·
NNC(=O)CSCC(=O)Nc1ccccc1,·,-1.3
COc1ccc(-c2nnc(SCC(=O)Oc3ccccc3)o2)cc1OC,-0.52,0.1
Cc1cc(C)nc(SCC(=O)Nc2sc3c(c2C#N)CCCC3)n1,-0.43,-1.5
Cc1ccc(S(=O)(=O)N2CN(S(=O)(=O)c3ccc(C)cc3)c3ccccc32)cc1,1.4,-2.4
Cn1c(=O)c2c(O)c(Cc3ccccc3)c(=O)n(C)c2n(C)c1=O,·,-1.7
CCN(CC)CC(C)CNC(=O)c1c(O)nc2c(C)cccn2c1=O (stereo not drawn),0.83,-2
CCc1ccc2oc(C(=O)NCc3ccc4c(c3)OCO4)cc(=O)c2c1,1.5,6.2
C=CCSc1ncnc2nc[nH]c12,0.55,-0.47
COc1ccc(C(C)(C)C)cc1S(=O)(=O)N1CCN(c2cc(N(C)C)nc(C)n2)CC1,1.2,-0.4
CCCCCn1c(CN2CCC(C)CC2)nc2c1c(=O)n(C)c(=O)n2C,1.8,-1.1
CCc1ccc(-n2c(C)nnc2SCc2nc(-c3ccc(OC)cc3OC)no2)cc1,2.1,-1.6
O=C(CSc1nccn1C1CCCC1)Nc1ccc(F)cc1F,1.3,·
CCCOc1ccc(C(=O)Nc2sc3c(c2C#N)CC(C)(C)OC3)cc1,·,-0.71
Cc1ccc(CSc2nncn3c2cc2sccc23)cc1,2.1,·
COc1ccc(OC)c(CCNc2ncnc3onc(C)c23)c1,0.67,·
O=C(Nc1ccccc1Cl)N1CCC2(CC1)Nc1cc(F)ccc1-n1cccc12,-0.19,·
O=C(OCC1CC2C=CC1C2)c1cc2ccccc2oc1=O (stereo not drawn),·,-2
COc1ccc(Cc2nc3c4cnn(-c5ccc(C)c(C)c5)c4ncn3n2)cc1OC,1,-1
O=C(CCC(=O)N1CC2CCCN2c2ccccc21)NCc1ccco1 (stereo not drawn),-0.64,·
O=C(Cn1c(=O)oc2ccccc21)N1CCC(CN2CCc3ccccc3C2)CC1,-0.86,·
O=C(CSc1nc2ccccc2nc1N1CCCCC1)NCC1CCCO1 (stereo not drawn),0.63,-0.98
Cc1cc(=O)n2[nH]c(-c3ccccc3)nc2n1,1.4,-2.3&-0.28
COc1cscc1C(=O)N/N=C/c1ccc(Cl)cc1,·,1.5
CC1CC1c1ccc(CCC(=O)Nc2ncc(Cc3ccc(F)cc3)s2)o1 (stereo not drawn),-0.16,-1.7
CCOc1cc(-c2ccc(OCC(=O)OC)cc2)cc(=O)c2c(C)oc(C)c12,-1.6,-2
O=C1OC(C(=O)Nc2ccccc2Cl)Cc2ccccc21 (stereo not drawn),1.8,-1.1
Cc1ccc(CNc2c(-c3ccc(F)c(F)c3)nc3ncccn23)cc1,-1.1,·
CN(C)c1ccc(-c2n(C)c3ccccc3[n+]2C)cc1,1,0.83
COc1cc(C)ccc1OCCSc1nc(-c2ccco2)nc2cc(=O)[nH]n12,-0.5,·
CCCc1nnc(NC(=O)c2cc(=O)c3cc(C)cc(C)c3o2)s1,0.89,-0.64
CN1CCc2c(sc3c2C(=O)NC(c2ccc(-c4ccccc4F)o2)N3)C1 (stereo not drawn),-4.2,-0.96
C=CCN(c1ccccc1)S(=O)(=O)c1cc2c(cc1C)NC(=O)CO2,1.5,·
Cc1cccc(CNS(=O)(=O)c2ccc(-c3coc(C)n3)cc2)c1,-0.11,·
CCOc1cc(-c2nc(-c3ccc(C)cc3)no2)cc(OCC)c1OCC,·,-1.6
Cc1cc(C)n(S(=O)(=O)c2ccc(-c3cc(C(F)(F)F)n(C)n3)s2)n1,·,-1.5
COC(=O)C1C(c2ccc(Br)cc2)c2c([nH][nH]c2=O)CC1(C)O (stereo not drawn),1.1,0.49
COc1cccc(-c2[nH]nc3nc(-c4cccc(OC)c4O)cc(C(=O)O)c23)c1,0.68,-0.07
Cc1nc2c(ccc3nc(NC(=O)c4ccc5c(c4)OCCO5)sc32)s1,·,-6.4
Cc1nnc(NC(=O)CSc2nnc(Cc3cccn3C)n2-c2ccc(Cl)cc2)s1,-0.17,0.08
CC1=C(c2ccc(C(C)C)cc2)S(=O)(=O)N=C1N1CCN(c2ccccc2F)CC1,0.46,-4.5

# Look-ups from above:
# In CDC25B CDK2 inh, Cc1cc(C)n(S(=O)(=O)c2ccc(-c3cc(C(F)(F)F)n(C)n3)s2)n1 has -1.5
# In TAR Tat displ, Cc1cc(=O)n2[nH]c(-c3ccccc3)nc2n1 has 1.4
# In CDC25B CDK2 inh, COc1cscc1C(=O)N/N=C/c1ccc(Cl)cc1 has 1.5
# In TAR Tat displ, CCCc1nnc(NC(=O)c2cc(=O)c3cc(C)cc(C)c3o2)s1 has 0.89
# In TAR Tat displ, COc1cc(C)ccc1OCCSc1nc(-c2ccco2)nc2cc(=O)[nH]n12 has -0.5
# In CDC25B CDK2 inh, COc1cccc(-c2[nH]nc3nc(-c4cccc(OC)c4O)cc(C(=O)O)c23)c1 has -0.07

# (next part)
SMILES,TAR Tat displ,CDC25B CDK2 inh
Cc1cc(NC(=O)CC(C)C)cc(-c2nc3ncccc3o2)c1O,-2.9,0.31
Fc1ccc(CNc2ncnc3c2cnn3-c2ccc(F)cc2)cc1,1.9,·
Cc1cc(C(=O)N(C)C2CCCCC2)no1,·,-0.23
C=CCNC(=O)Nc1ncc([N+](=O)[O-])s1,·,-0.19
Cc1cc2c(cc1C)NC(c1ccc(F)cc1)C1=C(CC(C)(C)CC1=O)N2 (stereo not drawn),-0.2,-0.55
CCOc1ccc(S(=O)(=O)Nc2cc(Cl)c3oc4c(c3c2)C(=O)CCC4)cc1,0.32,-0.78
CC(C)CCNc1c(-c2ccc(Cl)cc2)c(=O)c1=O,0.11,·
NC(=O)C1CCN(c2nc3c(S(=O)(=O)c4cccc(Cl)c4)nnn3c3ccsc23)CC1,0.52,·
Cc1ccc(NC(=O)Nc2c[nH]c(=O)[nH]c2=O)cc1,1.8,·
COc1ccc(N(CC(=O)Nc2ccc(F)c(Cl)c2)C2=NC3CS(=O)(=O)CC3S2)cc1 (stereo not drawn),0.66,-1.8
COc1ccc(-c2nc(N3CCC(C)CC3)nc3n[nH]c(N)c23)cc1,·,-0.47
Cc1cc(NC(=O)Cn2cnc3c(nnn3Cc3ccc(Cl)cc3)c2=O)no1,·,-1.8
CN(C)c1ccc(Nc2nc(-c3ccncc3)cs2)cc1,-0.46,-4.3
CN(C)C(CNC(=O)c1cc(=O)c2ccccc2o1)c1ccco1 (stereo not drawn),0.74,-0.59
CCc1cc2c(N(C)C3CCCCC3)ncnc2s1,0.61,·
NC(=O)c1ccc[n+](Cc2ccc(Cl)c(Cl)c2)c1,·,-2.1
CCCN1C(=O)c2c(NC(C)=O)c3cc(F)ccc3n2CC1(C)C(=O)NC1CCCC1 (stereo not drawn),0.82,·
CCOC(=O)COc1ccccc1/C=C(\C#N)C(=O)c1ccc(Cl)cc1,·,0.07
O=C(CCCn1c(=O)c2cccn2c2ccccc21)N1CCc2ccccc2C1,2.7,·
Cc1cccc(-n2nnc(-c3nc(-c4ccccc4F)no3)c2N)c1C,-0.16,·
Fc1ccc(Nc2c(-c3ccsc3)nc3ncccn23)cc1,·,-2
O=C(O)c1ccc([C@@H]2Nc3c(F)cccc3[C@@H]3C=CC[C@@H]32)cc1,9.4*,2.2
CSc1cccc(NC(=O)Cn2c(=O)sc3ccccc32)c1,·,1.1
CC(C)(C)C1=CC(C(C)(C)C)=C([N+](=O)[O-])C(=O)C1=O,·,-1.4
COc1ccc(CNc2nc3c(S(=O)(=O)c4ccc(Cl)cc4)nnn3c3ccsc23)cc1,1.2,·
Nc1nc(SCC(=O)Nc2ccc(Cl)cc2)ncc1S(=O)(=O)c1ccccc1,-0.2,·
C=CCN1C(=O)C2(/C(=C(/O)c3ccc(OC)cc3)C(=O)C(=O)N2CCCN(C)C)c2ccccc21 (stereo not drawn),1.2,1.6
CN(C)CCCN(C(=O)COc1ccccc1)c1nc2c(F)cc(F)cc2s1,1,·
CC(=O)N1CCOc2ccc(S(=O)(=O)N3CCc4ccccc43)cc21,0.82,·
Cc1ccc(-c2n[nH]c(=O)c3c2CCCC3)cc1S(=O)(=O)N1CCc2ccccc2C1,-0.56,1.7
CC(=O)Nc1nnc(SCc2cc(=O)n3c(C)csc3n2)s1,0.7,·
NC(=O)Cc1nnc(-c2ccc(Br)cc2)o1,0.18,-0.77
COc1ccc(C(=O)c2ccc(OC)cc2O)c(O)c1,1.6,-0.64
Cn1c(=O)c2cc(C(=O)NCC3CCCO3)sc2c2ccc(Cl)cc21 (stereo not drawn),-1.2,-2.1
NS(=O)(=O)c1cc(Br)ccc1Br,·,0.76
Cn1c(=O)c2c(-c3ccc(Cl)cc3)ccnc2n(C)c1=O,0.11,0.67
O=S(=O)(Nc1ccc(OC(F)F)cc1)c1ccc(F)cc1,·,0.05
O=c1c2c(n3cnnc3n1-c1ccccc1)-c1ccccc1CC21CCCC1,1.4,-0.07
Cc1nn(-c2ccc3nnc(C)n3n2)c2c1C(c1cc(Br)ccc1F)CC(=O)N2 (stereo not drawn),0.01,·
COc1cc(OC)cc(OCC(O)Cn2c(C)nc3ccccc32)c1 (stereo not drawn),0.34,-1.1

# Arranged by length of the SMILES (high to low): some entries from above.
SMILES,TAR Tat displ,CDC25B CDK2 inh
C=CCN1C(=O)C2(/C(=C(/O)c3ccc(OC)cc3)C(=O)C(=O)N2CCCN(C)C)c2ccccc21 (stereo not drawn),1.2,1.6
Cc1ccc(-c2n[nH]c(=O)c3c2CCCC3)cc1S(=O)(=O)N1CCc2ccccc2C1,-0.56,1.7
COc1ccc(CNc2nc3c(S(=O)(=O)c4ccc(Cl)cc4)nnn3c3ccsc23)cc1,1.2,·
Nc1nc(SCC(=O)Nc2ccc(Cl)cc2)ncc1S(=O)(=O)c1ccccc1,-0.2,·

# An excerpt of these results, with values under each structure.
# Results follow in this order: TAR Tat displ	CDC25B CDK2 inh
COc1ccc(C(=O)c2ccc(OC)cc2O)c(O)c1
  1.6	-0.64
Cn1c(=O)c2cc(C(=O)NCC3CCCO3)sc2c2ccc(Cl)cc21 (stereo not drawn)
  -1.2	-2.1

# The list goes on.
SMILES,TAR Tat displ,CDC25B CDK2 inh
CC(C)OC(=O)C1C(=O)CC(C)(O)C(C(=O)OC(C)C)C1c1ccccc1 (stereo not drawn),1.1,0.6
Cc1nc2sccn2c(=O)c1S(=O)(=O)Nc1ccccc1Br,0.9,·
C=CCOc1ccc(C2C(C(=O)c3cc4ccccc4o3)=C(O)C(=O)N2CCN(C)C)cc1 (stereo not drawn),-0.65,-0.13
CN1CCN(CCNC(=O)CCCN2C(=O)CCn3nc(-c4cn(C)c5ccccc45)cc32)CC1,1.2,·
CC(=O)Nc1c2n(c3ccc(F)cc13)CC(C)(C(=O)NCCC(C)C)N(CCC(C)C)C2=O (stereo not drawn),2.2,·
COc1cc(OC)c(N(C)C(=O)c2cn(CC(C)C)c(=O)c3cc(OC)c(OC)cc23)cc1Cl,-0.09,-1.9
COC(=O)C1=NN(c2ccc(Cl)cc2)c2ccccc2S1(=O)=O,2.7,-1.4
C(=C\c1ccco1)/C1=NN(Cc2ccccc2)CC1,·,-1.4
O=[n+]1cc(-c2cccc3ccccc23)n([O-])c2c1CCC2,·,0.64
COc1ccc2c(c1)CC(NC(=O)Nc1ccc(OC)cc1OC)CO2 (stereo not drawn),0.55,·
O=S(=O)(Cc1ccccc1)N1CCCN(c2nc3cc(Cl)ccc3n3cccc23)CC1,1.1,-0.88
O=C(C1CCCCC1)N1CCC(O)(c2ccc(Cl)cc2)CC1,·,-1.3
O=S(=O)(Oc1ccccc1N1CCOCC1)c1cccc2nonc12,·,-1.5
Cc1cc(C(F)(F)F)c2c(C)nn(-c3ccccc3)c2n1,0.18,1.4
CCC(CO)NS(=O)(=O)c1c(C)nc2sccn2c1=O (stereo not drawn),1.6,·
CCOC(=O)c1cccc(C(=O)O)n1,0.86,0.29
